SARS PLpro yeast: blocks SARS-CoV papain-like protease in a yeast assay. S. cerevisiae expressing SARS-CoV PLpro, growth rescue; control for the full effect not named in the record. Potency, µM (top dose mostly 32.9 µM), for inactives: at the top dose activity, positive = growth rescue. 330,000 tested, 0.19% active; active means well fitted rising curve with a large enough effect; inconclusive means small, poorly fitted or top-dose-only effect; inactive means no such curve, though single readings can be large or run the other way; also: 0% is about no effect; nearly all actives have a fitted effect of over 55% in size; growth read by luminescence after 48 h
Cruzain Triton: cruzain (T. cruzi) inhibition with detergent | P25779 | 200,000 tested, 0.43% active | purified cruzain, Z-FR-AMC fluorescence, 0.01% Triton | Potency, µM, for the others: max response, negative = inhibition, usual class: inhibitors | AID 1478;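 also: plate controls were neutral wells for no effect and buffer without enzyme for full effect; nearly all actives have a fitted effect of over 40% in size; top concentration of the series not given in the record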
Target sequence (P25779 123-467 limits assumed): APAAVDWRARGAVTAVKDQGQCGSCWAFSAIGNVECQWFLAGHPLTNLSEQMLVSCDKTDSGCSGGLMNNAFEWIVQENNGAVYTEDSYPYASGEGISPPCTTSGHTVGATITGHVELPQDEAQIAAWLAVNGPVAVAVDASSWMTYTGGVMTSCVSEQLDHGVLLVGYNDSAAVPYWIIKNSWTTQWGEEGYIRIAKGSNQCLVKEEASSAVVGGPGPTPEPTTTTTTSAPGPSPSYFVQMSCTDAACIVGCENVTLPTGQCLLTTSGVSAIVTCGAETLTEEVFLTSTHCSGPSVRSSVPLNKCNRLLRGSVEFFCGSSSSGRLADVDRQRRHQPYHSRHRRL
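Cysteine protease activity tested under reducing, mildly acidic conditions (100 mM sodium acetate pH 5.5, 5 mM DTT) plus 0.01% Triton X-100. Cruzain 1.5 nM; substrate Z-FR-AMC 2 uM; 15 min compound preincubation at room temperature.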
Lassa entry inh: inhibitors of Lassa virus binding or cell entry. Potency, µM (doses to about 37.9 µM), without a hit: at the top dose activity change, negative = inhibition, actives largely listed as inhibitors. Lassa virus pseudotype entry inhibition, cell reporter; control for the full effect not named in the record. 300,000 tested, 1.2% active; active means well fitted inhibition curve with a large enough effect; inconclusive means small, poorly fitted or top-dose-only effect, or effect the other way; inactive means flat fitted curve, though single readings scatter; tested in HEK293 cells; also: % is scaled to controls: 0 for no effect and ±100 for the full control effect; nearly all actives have a fitted effect of over 50% in size; luciferase read-out
2A StopGo: lowers the luciferase signal of an FMDV 2A StopGo reporter; Potency, µM (doses to about 57.9 µM), for inactives: at the top dose signal change, negative = less light; 410,000 tested, 1.2% active; AID 1159524; human cells with a luciferase reporter of 2A StopGo recoding; control for the full effect not named in the record; active = well fitted falling curve with a large enough effect; inconclusive = small, poorly fitted or top-dose-only effect; inactive = no such curve, though single readings can be large or run the other way; tested in HEK293T cells; also: % is scaled to controls: 0 for no effect and ±100 for the full control effect; nearly all actives have a fitted effect of over 45% in size; luciferase light after 4 h
RE007 growth inh: less growth of the S. pombe RE007 Vpr strain; AID 651644; Potency, µM (doses to about 92.2 µM), for inactives: top-dose activity change, negative = less growth; S. pombe RE007 Vpr strain, BacTiter-Glo ATP luminescence, 24 h; control for the full effect not named in the record; 360,000 tested, 0.21% active; active = well fitted falling curve with a large enough effect; inconclusive = small, poorly fitted or top-dose-only effect; inactive = no such curve, though single readings can be large or run the other way;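 also: % is scaled to controls: 0 for no effect and ±100 for the full control effect; nearly all actives have a fitted effect of over 50% in size; the assay follows cell death caused by Vpr and the record does not say whether a fall means rescue or toxicity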
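Fission yeast strain RE007, carrying one chromosomally integrated HIV-1 vpr copy, was seeded at OD 0.01 in PMG+AL medium with 23 nL pinned compound. After 24 h at 30 °C and 99% humidity, viability was read by BacTiter-Glo luminescence.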
MARV entry inh: Marburg virus entry inhibition | Marburg virus pseudotyped entry inhibition, cell reporter; control for the full effect not named in the record; about a third of the inactives were read at about 46 µM | Potency, µM (series often up to 37.8 µM), inactives show top-dose activity change, negative = inhibition, usual class: inhibitors | 300,000 tested, 1.8% active; active = well fitted inhibition curve with a large enough effect; inconclusive = small, poorly fitted or top-dose-only effect, or effect the other way; inactive = flat fitted curve, though single readings scatter; tested in HEK293 cells; about a fifth of its hits are not listed in these tables; also: % is scaled to controls: 0 for no effect and ±100 for the full control effect; luciferase read-out
NS1 function inh: inhibitors of influenza NS1 protein function | S. cerevisiae slowed by influenza A NS1, growth recovery by OD600 | Potency, µM (series often up to 46.1 µM), without a hit: at the highest dose activity, positive = more growth | 270,000 tested, 0.4% active; active means well fitted rising curve with a large enough effect; inconclusive means small, poorly fitted or top-dose-only effect; inactive means no such curve, though single readings can be large or run the other way; also: nearly all actives have a fitted effect of over 50% in size
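In this qHTS, NS1 from influenza A is expressed in budding yeast, where it slows growth. Cells are switched from glucose to 2% galactose medium (pH 6.0, -URA), treated with compound, and growth recovery is read at OD600.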
Cruzain inh noDet: inhibitors of Trypanosoma cruzi cruzain without detergent. purified cruzain, Z-FR-AMC fluorescence, no detergent. Potency, µM, for the others: max response, negative = inhibition, most hits filed as inhibitors. 200,000 tested, 2.3% active. AID 1476;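 also: plate controls were enzyme without inhibitor for no effect and buffer without enzyme for full effect; nearly all actives have a fitted effect of over 40% in size; top concentration of the series not given in the record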
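Purified cruzain at 1.5 nM, pre-incubated 15 min with compound at room temperature in 100 mM sodium acetate pH 5.5, 5 mM DTT, 0.00005% Triton X-100. Reaction started with 2 uM Z-FR-AMC; AMC fluorescence increase over 60 s gives rate.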
Active calls of the source: *; ? = inconclusive; · = no result given; & = joins results of further samples; [ ] = dose if it differs, or a comment. Unless noted, calls follow the shape of the dose curve; as a rule, active = well fitted curve in the direction sought with a large enough effect; inconclusive = small, poorly fitted or top-dose-only effect, or another doubt; inactive = no such curve, though single readings can be large; an effect the other way counts as inactive or inconclusive. Potency is read from the fitted curve at half-maximal effect.

SMILES	SARS PLpro yeast	Cruzain Triton	Lassa entry inh	2A StopGo	RE007 growth inh	MARV entry inh	NS1 function inh	Cruzain inh noDet
CCOC(=O)C1CCN(C(=O)CCCN2C(=O)c3ccccc3C2=O)CC1	4%	6.3%	-1%	17%	21%	1%	-37%	-12%
CCCCOc1ccc(C2c3c(-c4ccccc4O)n[nH]c3C(=O)N2Cc2ccncc2)cc1OC (configuration not stated)	·	-4.9%	?	8%	·	?	·	?
Cc1ccccc1Oc1nc2c(c(=O)n(C)c(=O)n2C)n1C	0%	·	13%	9%	7%	11%	-5%	·
CC1=C(C)CS(=O)N(S(=O)(=O)c2ccc(Cl)cc2)C1 (configuration not stated)	-42%	?	?	?	?	?	-35%	?
c1coc(-c2nnc3n2C2(CCCC2)Cc2ccccc2-3)c1	1%	-1.6%	12%	-6%	15%	-17%	-3%	-2%
O=C(NCCN1CCOCC1)C1CCN(Cc2ccccc2O)CC1	1%	-1.8%	-2%	-7%	4%	-17%	2%	5%
Cn1cnnc1SCC(=O)Nc1nc(-c2ccc(F)cc2)cs1	-5%	·	0%	-24%	-6%	-1%[46.1 µM]	·	·
O=S(=O)(Nc1ccccn1)c1cnc(Cl)c(Br)c1	9%	-1.1%	0%	28%	-6%	?	2%	6%
Cc1cc(OC(=O)c2ccccc2C)c([N+](=O)[O-])c(=O)[nH]1	2%	·	·	?	9%	·	-5%	·
CCOC(=O)c1nnn(-c2nonc2N)c1CN1CCCC1	-4%	·	2%[46.1 µM]	-10%	19%	-19%[46.1 µM]	-42%	·
N#Cc1nc(Cc2cccc3ccccc23)oc1N1CCN(c2ccccc2)CC1	-4%	1.4%	-11%	15%	-13%	-7%	7%	7.9µM*
CCOC(=O)c1cnc2c(ccc3ccccc32)c1Nc1ccccc1OC	·	-0.8%	?	-9%	·	·	·	-5%
CCn1c(SC)nnc1C1CCN(CC(=O)Nc2ccccc2N2CCOCC2)CC1	-1%	·	·	10%	-17%	3%[46.1 µM]	-3%	·
CCCCNS(=O)(=O)c1ccc2nc(-c3cccnc3)cc(C(=O)NC3CC3)c2c1	-2%	-3.3%	-3%	100%[activator]	3%	-1%	27%	8%
O=C1CCC(=O)N(c2ccccc2)N1	1%	·	11%[46.1 µM]	-1%	-7%	-4%[46.1 µM]	-1%	·
COc1ccccc1CNC(=O)c1ccoc1C	1%	2.4%	21%	13%	-15%	18%	13%	1%
COc1ccccc1NS(=O)(=O)c1cccc(C(=O)N/N=C/c2ccc([N+](=O)[O-])o2)c1	-2%	·	14µM*	?	-2%	?	·	·
COc1ccc(C(=O)COC(=O)[C@H](C)Nc2ccc(C(F)(F)F)cc2[N+](=O)[O-])cc1	-8%	-1.7%	7%	-17%	-11%	?	-10%	-8%
Cc1ccc2c(C)c(C)c(=O)n(C)c2c1	·	·	?	-18%	15%	21%	·	·
O=C(NCc1csc(-c2cccs2)n1)C1CCCCC1	0%	·	?	-10%	5%	?	-9%	·
CN(CCNC(=O)c1cc2c(-c3ccccc3F)nn(C)c2s1)C1CCCCC1	1%	·	·	-14%	-8%	·	2%	·
COc1ccc(CCN2CC(C(=O)N3CCSCC3)CCC2=O)cc1 (configuration not stated)	6%	·	?	-8%	2%	30%	-5%	·
O=C(Nc1cc(Cl)cc(Cl)c1)Nc1cnccn1	-3%	·	·	-23%	-12%	·	8%	·
Cc1ccc(F)c(CNC(=O)C2CCC(=O)N(Cc3ccccn3)C2)c1F (configuration not stated)	?	·	25%[46.1 µM]	-3%	-1%	2%[46.1 µM]	21%	·
Cc1ccc(C)c(NC(=O)CSc2nnc(-c3ccccc3)n2N)c1	-2%	-2.0%	?	-10%	10%	15%	-3%	7%
O=C(Cc1cccs1)NC(c1ccccc1)c1ccccc1	1%	·	12%	29%	2%	11%[14.2 µM]	4%	·
Cc1ccc(NC(=O)CN2CCCC2c2cccn2C)cc1C (configuration not stated)	-1%	·	?	5%	-16%	?	·	·
COc1ccc(N2CCN(c3ncccn3)CC2)cc1	7%	0.4%	?	·	3%	0%	-4%	13%
O=Nc1c(O)[nH]c2ccc(Cl)cc12	0%	·	·	-15%	-14%	·	0%	·
O=C(CN1CCN(c2ccc(Cl)cc2)CC1)Nc1ccc(F)cc1F	·	-8.1%	-2%[46.1 µM]	0%	·	·	·	3%
COc1cccc(Cn2c(-c3nonc3N)nc3ccccc32)c1	-2%	3.9%	?	?	17%	-35%	-14%	2%
CCS(=O)(=O)N1CCCC(C(=O)NC2CCC(C)CC2)C1 (configuration not stated)	1%	2.1%	13%	36%[activator]	2%	17%	0%	-11%
Cc1ccccc1C([O-])=Nc1ccc[n+](-c2nc3ccccc3nc2NS(=O)(=O)c2ccccc2)c1	1%	·	-21%	20%	8%	-11%[46.1 µM]	1%	·
CCOC(=O)Nc1ccc2c(c1)N(C(=O)CCN1CCN3CCCC3C1)c1ccccc1CC2 (configuration not stated)	-5%	5.4%	-15%	0%	-6%	?	-11%	-8%
NC(=O)c1cc(S(=O)(=O)NCc2ccccc2)cs1	-1%	2.4%	18%[46.1 µM]	23%&21%	2%	·	-9%	-3%
CC12CC(c3ccccc3O1)N(C(=O)c1ccc(Br)o1)C(=O)N2c1ccccc1 (configuration not stated)	-4%	5.1%	29%	-7%	17%	?	9%	-2%
O=C(Nc1ccccc1Cl)Oc1ccc(-c2ccccc2)cc1	-3%	·	·	43%[activator]	-21%	·	-7%	·
Cc1cc(CO)nn1-c1ccc([N+](=O)[O-])cc1	-2%	·	?	-5%	-4%	?	1%	·
Cc1noc(C)c1C(=O)Nc1c(F)cc(F)cc1Br	4%	0.9%	-10%	10%	5%	-5%	-1%	-5%
O=S(=O)(c1cccc2nsnc12)N1CCNCC1	-4%	·	?	-2%	7%	-23%[46.1 µM]	5%	·
O=C(CN1c2ccccc2Sc2ccccc21)N/N=C/c1ccc(Cl)cc1Cl	-6%	·	·	-19%	14%	·	-1%	·
CC1CCN(c2ccc(NC(=O)Cn3c(=O)oc4ccccc43)cc2)CC1	-15%	·	·	4%	2%	·	17%	·
Cc1c(N2C(=O)CSC2=S)c(=O)n(-c2ccccc2)n1C	-6%	·	-23%	?	6%	-25%[46.1 µM]	·	·
CN(C(=S)NC(=O)c1ccccc1)c1c(N)n(Cc2ccccc2)c(=O)[nH]c1=O	1%	·	-9%[46.1 µM]	0%	-1%	11%[46.1 µM]	-4%	·
Cc1nn(C)cc1CNC(=O)C1CCC(=O)N(Cc2cccc(C(F)(F)F)c2)C1 (configuration not stated)	-1%	·	-12%	-1%	15%	11%	-4%	·
Cc1cccc(-c2nsc(SCC(=O)N3CCCC3)n2)c1	-7%	-1.4%	?	10%	-15%	?	-36%	9%
O=C(CCCn1c(=S)[nH]c2cc3c(cc2c1=O)OCO3)NCc1ccco1	-2%	·	-17%	-8%	14%	-3%	·	·
COc1ccc(CNCc2cn(-c3cccc(F)c3)nc2-c2ccc(C)o2)cc1	-2%	·	·	-17%	4%	·	2%	·
Cc1sc(NC(=O)CSc2nnc(C(C)C)n2C)c(C#N)c1C	?	-1.0%	4%	15%	27%	9%[46.1 µM]	2%	4%
COc1ccc(Cn2c(=O)sc3ccccc32)cc1OC	-5%	-5.5%	-11%	?	15%	?	-9%	-5%
O=C(NNC(=S)NCc1ccco1)c1cccs1	-20%	-1.2%	8%	-11%	0%	?	5%	1%
Cc1ccc(C)c(Cn2c(=O)n(CCC(=O)NCc3ccco3)c(=O)c3sccc32)c1	4%	4.1%	-19%	-9%	5%	?	3%	?
COCc1c(C(=O)N/N=C/c2ccncc2)nnn1-c1nonc1N	1%	·	-1%[46.1 µM]	2%	3%	?	0%	·
CC1(C)Cc2ccccc2-c2nnc(C(F)(F)F)n21	19%	-4.2%	11%	-4%	0%	-2%	-7%	2%
O=C(Nc1ccc(-c2cn3c(n2)SCC3)cc1)c1ccco1	-1%	·	?	22%	-14%	?	4%	·
C=CCc1ccccc1OCC(O)CN1CCN(c2ccccc2OC)CC1 (configuration not stated)	-3%	2.6%	?	?	-6%&-4%	?	-18%	13%
c1ccc(-n2nnnc2Sc2ncnc3sc4c(c23)CCCC4)cc1	7%	-1.6%	?	28µM*	52%	?	3%	-24%
O=[N+]([O-])c1ccc(NCCO)c2ncccc12	-1%	-12%	0%	-6%	-6%	34%	10%	-12%
CCOc1ccccc1NC(=O)CN1CCN(Cc2ccccc2)CC1	1%	·	·	-8%	-2%	·	-1%	·
CCOc1ccc(N(CC(=O)NCc2ccccc2)C(=O)CCC(=O)Nc2nccs2)cc1	0%	·	-37%	9%	-4%	?	-3%	·

Next part
SMILES	SARS PLpro yeast	Cruzain Triton	Lassa entry inh	2A StopGo	RE007 growth inh	MARV entry inh	NS1 function inh	Cruzain inh noDet
CC(C)CNC(=O)C(=O)Nc1cc2c3c(c1)C(C)C(=O)N3CCC2 (configuration not stated)	6%	·	·	10%	2%	·	18%	·
Cc1ccccc1NC(=S)N1CCN(c2ccccc2C)CC1	2%	·	-17%[46.1 µM]	-9%	8%	26%[46.1 µM]	21%	·
CC(OC(=O)c1ccccc1C(=O)N(C)c1ccccc1)C(=O)Nc1ccccc1[N+](=O)[O-] (configuration not stated)	3%	·	-12%	21%	-3%	1%	·	·
Cc1c(OCC(=O)NCCCn2ccnc2)ccc2c3c(c(=O)oc12)CCCC3	6%	·	·	-11%	-9%	·	-5%	·
O=C(O)/C=C/C(=O)c1c(-c2ccccc2)[nH]c2ccccc12	0%	·	·	?	1%	·	11%	·
COc1ccc(NC(=O)c2cccnc2N2CCOCC2)cc1	0%	·	-5%	-2%	3%	-1%	2%	·
C=CCn1c(-c2cccn(Cc3ccccc3)c2=O)n[nH]c1=S	2%	3.8%	-2%	-22%	8%	7%	5%	1%
COC(=O)c1ccc(C(=O)Nc2ccc3nc(-c4ccncc4)[nH]c3c2)cc1	1%	·	·	-17%	5%	·	-2%	·
CCCc1cnc2c(c1SCC(=O)Nc1ccc(C)c(Cl)c1)c(=O)n(C)c(=O)n2C	·	0.3%	-26%[46.1 µM]	21%	·	·	·	0%
COCc1c(Br)c(C)nc(OCC(=O)N/N=C/c2ccco2)c1C#N	-1%	·	3%	-19%	-6%	-14%	·	·
COc1cccc(CNC(=O)CC(c2ccc(F)cc2)N2Cc3ccccc3C2=O)c1 (configuration not stated)	·	-0.8%	6%[46.1 µM]	16%	·	·	·	-2%
